Assay outcomes from PubChem BioAssay.
2A StopGo – FMDV 2A StopGo reporter, luciferase signal; Potency, µM (doses to about 57.9 µM), without a hit: at the top dose signal change, negative = less light; human cells with a luciferase reporter of 2A StopGo recoding; control for the full effect not named in the record; 410,000 compounds, 1.2% hits; active = well fitted falling curve with a large enough effect; inconclusive = small, poorly fitted or top-dose-only effect; inactive = no such curve, though single readings can be large or run the other way; tested in HEK293T cells; note: % is set by controls: 0 for no effect and ±100 for the full control effect; nearly all actives have a fitted effect of over 45% in size; luciferase light after 4 h
LASV entry inh – blocks Lassa virus binding to or entry into cells. Lassa virus pseudotype entry inhibition, cell reporter; control for the full effect not named in the record. Potency, µM (doses to about 37.9 µM), inactives show at the highest dose activity change, negative = inhibition, actives largely listed as inhibitors. 300,000 compounds, 1.2% hits. AID 540256; active means well fitted inhibition curve with a large enough effect; inconclusive means small, poorly fitted or top-dose-only effect, or effect the other way; inactive means flat fitted curve, though single readings scatter; tested in HEK293 cells; note: % is set by controls: 0 for no effect and ±100 for the full control effect; nearly all actives have a fitted effect of over 50% in size; luciferase read-out
Cruzain noTriton – inhibitors of Trypanosoma cruzi cruzain without detergent; P25779; purified cruzain, Z-FR-AMC fluorescence, no detergent; Potency, µM, for the others: max response, negative = inhibition, most hits filed as inhibitors; 200,000 compounds, 2.3% hits; AID 1476;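 note: plate controls were enzyme without inhibitor for no effect and buffer without enzyme for full effect; nearly all actives have a fitted effect of over 40% in size; top concentration of the series not given in the record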
Target sequence (P25779 123-467 limits assumed): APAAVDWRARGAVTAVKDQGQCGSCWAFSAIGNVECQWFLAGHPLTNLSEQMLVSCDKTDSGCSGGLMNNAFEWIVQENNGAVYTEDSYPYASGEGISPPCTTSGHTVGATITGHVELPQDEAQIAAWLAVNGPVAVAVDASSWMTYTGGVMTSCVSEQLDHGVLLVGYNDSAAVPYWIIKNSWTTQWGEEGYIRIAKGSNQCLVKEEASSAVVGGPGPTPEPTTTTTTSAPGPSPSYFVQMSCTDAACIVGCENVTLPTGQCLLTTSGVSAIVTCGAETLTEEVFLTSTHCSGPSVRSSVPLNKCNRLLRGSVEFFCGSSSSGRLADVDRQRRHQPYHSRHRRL
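Purified cruzain at 1.5 nM, pre-incubated 15 min with compound at room temperature in 100 mM sodium acetate pH 5.5, 5 mM DTT, 0.00005% Triton X-100. Reaction started with 2 uM Z-FR-AMC; AMC fluorescence increase over 60 s gives rate.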
RE007 growth inh – less growth of the S. pombe RE007 Vpr strain | S. pombe RE007 Vpr strain, BacTiter-Glo ATP luminescence, 24 h; control for the full effect not named in the record | Potency, µM (highest dose often 92.2 µM), without a hit: at the top dose activity change, negative = less growth | 360,000 compounds, 0.21% hits; active = well fitted falling curve with a large enough effect; inconclusive = small, poorly fitted or top-dose-only effect; inactive = no such curve, though single readings can be large or run the other way;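 note: % is set by controls: 0 for no effect and ±100 for the full control effect; nearly all actives have a fitted effect of over 50% in size; the assay follows cell death caused by Vpr and the record does not say whether a fall means rescue or toxicity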
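Fission yeast strain RE007, carrying one chromosomally integrated HIV-1 vpr copy, was seeded at OD 0.01 in PMG+AL medium with 23 nL pinned compound. After 24 h at 30 °C and 99% humidity, viability was read by BacTiter-Glo luminescence.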
Marburg entry inh – Marburg virus entry inhibition; Marburg virus pseudotyped entry inhibition, cell reporter; control for the full effect not named in the record; about a third of the inactives were read at about 46 µM; Potency, µM (series often up to 37.8 µM), inactives show at the highest dose activity change, negative = inhibition, actives largely listed as inhibitors; 300,000 compounds, 1.8% hits; AID 540276; active = well fitted inhibition curve with a large enough effect; inconclusive = small, poorly fitted or top-dose-only effect, or effect the other way; inactive = flat fitted curve, though single readings scatter; tested in HEK293 cells; about a fifth of its hits are not listed in these tables; note: % is set by controls: 0 for no effect and ±100 for the full control effect; luciferase read-out
SARS PLP yeast – SARS-CoV PLP inhibition in yeast. S. cerevisiae expressing SARS-CoV PLpro, growth rescue; control for the full effect not named in the record. Potency, µM (doses to about 32.9 µM), for inactives: at the top dose activity, positive = growth rescue. 330,000 compounds, 0.19% hits; active means well fitted rising curve with a large enough effect; inconclusive means small, poorly fitted or top-dose-only effect; inactive means no such curve, though single readings can be large or run the other way; note: 0% is about no effect; nearly all actives have a fitted effect of over 55% in size; growth read by luminescence after 48 h
NS1 function inh – influenza NS1 inhibition; AID 2326; 270,000 compounds, 0.4% hits; S. cerevisiae slowed by influenza A NS1, growth recovery by OD600; Potency, µM (titrated, usually from 46.1 µM), inactives show top-dose activity, positive = more growth; active means well fitted rising curve with a large enough effect; inconclusive means small, poorly fitted or top-dose-only effect; inactive means no such curve, though single readings can be large or run the other way; note: nearly all actives have a fitted effect of over 50% in size
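S. cerevisiae expressing influenza A NS1, grown in glucose, washed, then diluted 1:100 into pH 6.0 -URA galactose medium with 23 nl compound. Growth recovery read as OD600; NS1-free strain serves as control.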
Cruzain Triton – cruzain (T. cruzi) inhibition with detergent; P25779; purified cruzain, Z-FR-AMC fluorescence, 0.01% Triton; Potency, µM, without a hit: max response, negative = inhibition, most hits filed as inhibitors; 200,000 compounds, 0.43% hits;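 note: plate controls were neutral wells for no effect and buffer without enzyme for full effect; nearly all actives have a fitted effect of over 40% in size; top concentration of the series not given in the record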
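Compounds were screened in titration against cruzain (1.5 nM) with 0.01% Triton X-100 to counter colloidal aggregation. Activity was the AMC fluorescence increase over 60 s after adding 2 uM Z-FR-AMC at pH 5.5.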
Numbers without * were called inactive; ? = inconclusive; / = no result given; & = joins results of further samples; [ ] = another dose, or the depositor's remark. Unless noted, calls come from the whole dose curve; as a rule, active = well fitted curve in the direction sought with a large enough effect; inconclusive = small, poorly fitted or top-dose-only effect, or another doubt; inactive = no such curve, though single readings can be large; an effect the other way counts as inactive or inconclusive. Potency is the fitted concentration of half-maximal effect.

Short forms – A = 2A StopGo; B = LASV entry inh; C = Cruzain noTriton; D = RE007 growth inh; E = Marburg entry inh; F = SARS PLP yeast; G = NS1 function inh; H = Cruzain Triton
COc1ccc(CNC(=O)COc2ccc(S(=O)(=O)NC(C)C)cc2)cc1
  A: /	B: -23%	C: -7%	D: 3%	E: 4%	F: 1%	G: 13%	H: 0.1%

Fc1ccc2nc(N3CCCCC3)sc2c1
  A: 10%	B: ?	C: 2%	D: -26%	E: 5%	F: 4%	G: -10%	H: -2.8%

CC(C)NC(=O)NC(=O)COc1ncnc2sccc12
  A: -5%	B: 1%	C: -8%	D: 3%	E: -2%	F: -2%	G: -11%	H: 5.2%

CCOC(=O)Cn1c(=O)oc2cc(S(=O)(=O)N3CCN(c4cccc(C)c4C)CC3)ccc21
  A: -14%	B: 19%[46.1 µM]	C: -17%	D: /	E: 19%[46.1 µM]	F: /	G: /	H: -2.3%

O=C(Cc1c(F)cccc1Cl)Nc1nc2ccccc2s1
  A: 49%[activator]	B: /	C: /	D: -15%	E: /	F: -3%	G: -3%	H: /

Cc1ccc(S(=O)(=O)Nc2ccc(NC(=O)CN3CCCCC3)cc2)cc1
  A: 21%	B: 3%	C: 1%	D: -25%	E: -17%	F: 2%	G: -12%	H: 3.9%

COCCC1CCCCN1C(=O)c1ccc2nc(Cc3ccccc3F)oc2c1 (stereo not given)
  A: 0%	B: -14%	C: /	D: 14%	E: 4%	F: -10%	G: 2%	H: /

COc1ccc(S(=O)(=O)N2CCN(Cc3ccccc3[N+](=O)[O-])CC2)cc1
  A: -8%	B: 4%[46.1 µM]	C: /	D: 5%	E: ?	F: /	G: /	H: /

Cc1ccc(S(=O)(=O)NCCC(=O)N2CCC(Cc3ccccc3)CC2)cc1
  A: -18%	B: ?	C: /	D: 1%	E: -3%	F: -16%	G: /	H: /

COc1ccc(C/C(N)=N/OC(=O)CCc2ccccc2)cc1
  A: -11%	B: -4%	C: /	D: -20%	E: -2%[46.1 µM]	F: -11%	G: -69%	H: /

Next structures follow:
Short forms – A = 2A StopGo; B = LASV entry inh; C = Cruzain noTriton; D = RE007 growth inh; E = Marburg entry inh; F = SARS PLP yeast; G = NS1 function inh; H = Cruzain Triton
O=S(=O)(c1ccc(F)cc1)c1nc(-c2ccco2)oc1Nc1ccc(F)cc1
  A: 7%	B: -10%	C: ?	D: 3%	E: -28%	F: -1%	G: -7%	H: -7.3%

CCOC(=O)c1ccccc1NC(=O)c1cccc(F)c1
  A: -20%	B: 1%	C: 0%	D: -15%	E: 4%	F: -5%	G: -12%	H: -1.7%

O=C1C2=C(CCCC2)C(=O)N1c1cccc(OCCBr)c1
  A: -1%	B: -2%	C: -1%	D: ?	E: 6%	F: 9%	G: 2%	H: -4.0%

O=P(Oc1ccccc1)(Oc1ccccc1)c1ccccc1
  A: 5%	B: /	C: /	D: -21%	E: /	F: -1%	G: -3%	H: /

COc1ccc(C)cc1N(C(=O)CNC(=O)c1ccco1)C(C(=O)NC1CCCC1)c1cccnc1 (stereo not given)
  A: 20%	B: 4%	C: -3%	D: ?	E: -2%&10%	F: 5%	G: -8%	H: 4.1%

COc1cc(CNn2cnnc2)ccc1OCC(=O)NC(C)(C)C
  A: -6%	B: 10%	C: 8%	D: -8%	E: 7%	F: -8%	G: 9%	H: 2.0%

Cc1ccc(C(=O)OCC(=O)NC(C)c2ccccc2)s1 (stereo not given)
  A: 31%[activator]	B: 0%[46.1 µM]	C: /	D: -7%	E: -2%[46.1 µM]	F: -2%	G: /	H: /

COc1ccc(NC(=O)Nc2ccc(C(=O)N3CCOCC3)cc2)cc1
  A: 1%	B: 9%	C: -8%	D: 0%	E: -12%[46.1 µM]	F: -5%	G: 0%	H: 1.8%

O=C(O)C1CCCN(C(=O)NCc2ccccc2)C1 (stereo not given)
  A: -22%	B: 4%	C: -1%	D: 0%	E: ?	F: -9%	G: 1%	H: 1.4%

Cc1cc(C(=O)Nc2cccc(O)c2)c(C)o1
  A: 28%	B: 1%	C: 0%	D: -1%	E: 6%	F: -4%	G: -11%	H: 1.1%

(cont.)
Short forms – A = 2A StopGo; B = LASV entry inh; C = Cruzain noTriton; D = RE007 growth inh; E = Marburg entry inh; F = SARS PLP yeast; G = NS1 function inh; H = Cruzain Triton
O=C1CCCc2ccccc2N1Cc1ccc(Cl)cc1Cl
  A: ?	B: -20%	C: -1%	D: -13%	E: ?	F: -2%	G: -16%	H: -5.8%

COc1cc(NC(=S)NCCC(c2ccccc2)c2ccccc2)c(OC)cc1Cl
  A: ?	B: ?	C: ?	D: 4%	E: ?	F: ?	G: 24%	H: -2.6%

CCCCCCCC[n+]1cccc(C(=O)N(CC)CC)c1
  A: -3%	B: -3%	C: -2%	D: -15%	E: 11%	F: -21%	G: 10%	H: 1.9%

CNC(=O)c1sc2ncccc2c1-n1cccc1
  A: 3%	B: -4%[46.1 µM]	C: 4%	D: /	E: /	F: /	G: /	H: 3.3%

Cc1nc(NS(=O)(=O)c2ccc(Cl)s2)c2c3c(sc2n1)CCCC3
  A: 3%	B: /	C: /	D: 2%	E: -6%	F: -3%	G: -34%	H: /

Cc1ccc(-c2csc3ncnc(SCC(=O)NCc4ccc5c(c4)OCO5)c23)cc1
  A: /	B: 1%	C: 25µM*	D: 2%	E: ?	F: 4%	G: 24%	H: -0.9%

Cc1ccc(C)c(N2CCN(C(=O)c3ccc(CS(=O)(=O)c4ccc(Br)cc4)o3)CC2)c1
  A: ?	B: ?	C: 9%	D: /	E: ?	F: /	G: /	H: -1.2%

CCOc1ccc(-c2cc(C(=O)NCc3ccc(C)cc3)c3ccccc3n2)cc1
  A: 0%	B: 18%[46.1 µM]	C: 3%	D: /	E: /	F: /	G: /	H: 1.0%

Cc1ccn2c(=O)nc(SCC(=O)NC3CCCCC3)nc2c1
  A: -22%	B: -9%	C: /	D: 13%	E: -27%	F: /	G: /	H: /

COC(=O)c1nc(N)sc1C
  A: -2%	B: 2%	C: /	D: -9%	E: 18%[46.1 µM]	F: 1%	G: 1%	H: /

A different layout for 13 compounds above.
Molecule	2A StopGo	LASV entry inh	Cruzain noTriton	RE007 growth inh	Marburg entry inh	SARS PLP yeast	NS1 function inh	Cruzain Triton
COc1ccc(C)cc1N(C(=O)CNC(=O)c1ccco1)C(C(=O)NC1CCCC1)c1cccnc1 (stereo not given)	20%	4%	-3%	?	-2%&10%	5%	-8%	4.1%
COc1cc(CNn2cnnc2)ccc1OCC(=O)NC(C)(C)C	-6%	10%	8%	-8%	7%	-8%	9%	2.0%
Cc1ccc(C(=O)OCC(=O)NC(C)c2ccccc2)s1 (stereo not given)	31%[activator]	0%[46.1 µM]	/	-7%	-2%[46.1 µM]	-2%	/	/
COc1ccc(NC(=O)Nc2ccc(C(=O)N3CCOCC3)cc2)cc1	1%	9%	-8%	0%	-12%[46.1 µM]	-5%	0%	1.8%
O=C(O)C1CCCN(C(=O)NCc2ccccc2)C1 (stereo not given)	-22%	4%	-1%	0%	?	-9%	1%	1.4%
Cc1cc(C(=O)Nc2cccc(O)c2)c(C)o1	28%	1%	0%	-1%	6%	-4%	-11%	1.1%
O=C1CCCc2ccccc2N1Cc1ccc(Cl)cc1Cl	?	-20%	-1%	-13%	?	-2%	-16%	-5.8%
COc1cc(NC(=S)NCCC(c2ccccc2)c2ccccc2)c(OC)cc1Cl	?	?	?	4%	?	?	24%	-2.6%
CCCCCCCC[n+]1cccc(C(=O)N(CC)CC)c1	-3%	-3%	-2%	-15%	11%	-21%	10%	1.9%
CNC(=O)c1sc2ncccc2c1-n1cccc1	3%	-4%[46.1 µM]	4%	/	/	/	/	3.3%
Cc1nc(NS(=O)(=O)c2ccc(Cl)s2)c2c3c(sc2n1)CCCC3	3%	/	/	2%	-6%	-3%	-34%	/
Cc1ccc(-c2csc3ncnc(SCC(=O)NCc4ccc5c(c4)OCO5)c23)cc1	/	1%	25µM*	2%	?	4%	24%	-0.9%
Cc1ccc(C)c(N2CCN(C(=O)c3ccc(CS(=O)(=O)c4ccc(Br)cc4)o3)CC2)c1	?	?	9%	/	?	/	/	-1.2%

Next entries:
Short forms – A = 2A StopGo; B = LASV entry inh; C = Cruzain noTriton; D = RE007 growth inh; E = Marburg entry inh; F = SARS PLP yeast; G = NS1 function inh; H = Cruzain Triton
C=CCSc1nc2c(C(=O)OCC)nnn2c2ccccc12
  A: ?	B: ?	C: /	D: 6%	E: 25%[46.1 µM]	F: -1%	G: 4%	H: /

Cc1cccc(Nc2nc(-c3ccc4c(c3)OCCO4)cs2)c1
  A: 3%	B: ?	C: ?	D: -2%	E: ?	F: -3%	G: 10%	H: 0.6%

Cc1c(Cl)c([N+](=O)[O-])nn1CCCC(=O)Nc1cc(Cl)ccc1Cl
  A: -8%	B: -12%	C: -2%	D: -1%	E: 13%	F: 17%	G: 10%	H: -3.2%

CC[n+]1ccc(/C=C/c2ccc(N(C)C)cc2)c2ccccc21
  A: 18µM*	B: ?	C: /	D: 13µM*	E: ?	F: -5%	G: -70%	H: /

2 compounds picked at random from the list so far:
Short forms – A = 2A StopGo; B = LASV entry inh; C = Cruzain noTriton; D = RE007 growth inh; E = Marburg entry inh; F = SARS PLP yeast; G = NS1 function inh; H = Cruzain Triton
Cc1cccc(Nc2nc(-c3ccc4c(c3)OCCO4)cs2)c1
  A: 3%	B: ?	C: ?	D: -2%	E: ?	F: -3%	G: 10%	H: 0.6%

Cc1c(Cl)c([N+](=O)[O-])nn1CCCC(=O)Nc1cc(Cl)ccc1Cl
  A: -8%	B: -12%	C: -2%	D: -1%	E: 13%	F: 17%	G: 10%	H: -3.2%
